# High-throughput results: PubChem BioAssay, National Center for Advancing Translational Sciences (NCATS)
# Vaccinia mCherry: qHTS for Stage-Specific Inhibitors of Vaccinia Orthopoxvirus: mCherry Reporter Primary qHTS | Vaccinia virus mCherry reporter infection, fluorescence; about a quarter of the inactives have no number | Potency, µM (titrated, usually from 36.5 µM), for inactives: at the top dose activity change, negative = inhibition, usual class: inhibitors | 0.63% of 310,000 active | AID 720579, 2013; active = well fitted inhibition curve with a large enough effect; inconclusive = small, poorly fitted or top-dose-only effect; inactive = no such curve, though single readings can be large or run the other way; tested in A549 cells; also: nearly all actives have a fitted effect of over 35% in size; inactives centre near -10
# VACV Venus inh: qHTS for Stage-Specific Inhibitors of Vaccinia Orthopoxvirus: Venus Reporter Primary qHTS; Vaccinia virus Venus reporter expression, fluorescence; Potency, µM (titrated, usually from 36.5 µM), for inactives: at the highest dose activity change, negative = inhibition, usual class: inhibitors; 0.46% of 330,000 active; active means well fitted inhibition curve with a large enough effect; inconclusive means small, poorly fitted or top-dose-only effect; inactive means no such curve, though single readings can be large or run the other way; tested in A549 cells; also: nearly all actives have a fitted effect of over 30% in size; inactives centre near -10
# * marks the source's active call; other numbers are inactive results; i = inactive; u = inconclusive; x = not tested or not shown; & = joins results of further samples; [ ] = dose if it differs, or a comment. % is scaled to controls: 0 for no effect and ±100 for the full control effect; potency is read from the fitted curve at half-maximal effect.
Molecule | Vaccinia mCherry | VACV Venus inh
CN(CC(=O)Nc1ccccc1)CC(=O)Nc1ccc(F)cc1 | -15% | -3%
CN(C)CCNc1c2c(nc3nnnn13)CCCC2 | -12% | -8%
N#CCSc1nc(-c2ccccc2)nc2ccccc12 | i | 0%
O=C1C=C(Nc2ccccc2O)c2ccccc2C1=O | 5µM* | u
Cc1ccc(C(=O)Nc2ccc(Nc3ccccc3)cc2)c(Cl)c1 | i | -16%
CCc1noc(C)c1C(=O)Nc1cc(C(F)(F)F)ccc1-n1cncn1 | -13% | -3%
CCCCCC(=O)N1C[C@@H](n2cc(-c3ccc(F)cc3)nn2)[C@H](O)C[C@@H]1c1ccc(C)cc1 | i | -28%
CCOC(=O)c1c(COC(=O)c2ccco2)nc2ccccc2[n+]1[O-] | x | -8%
CCOC(=O)[C@H]1[C@H]2COc3ccc(Br)cc3[C@@H]2N2C(=O)[C@H](C)NC(=O)[C@@]12C | -6% | 1%
CCCCC12CN3CC(C)(CN(C1)C3c1ccc(OCc3ccccc3)cc1)C2=O (configuration not stated) | -16% | -25%
Cc1cc(/C=C(/C#N)C(=O)Nc2ccccc2)c(C)n1-c1cccnc1 | -13%[1.46 µM] | -21%
CCOc1ccc(NC(=O)c2ccccc2CO)cc1 | i | -19%
CCOC(=O)c1[nH]c(C)c(C(=O)OCC(=O)N(C)C2CCS(=O)(=O)C2)c1C (configuration not stated) | -2% | -11%
CCOc1ccc(C(=O)NCCc2ccccc2)cc1 | i | -4%
CCOc1ccccc1NC(=O)c1nn(-c2ccc(OC)cc2)c(=O)c2c1c1ccccc1n2C | -4% | 5%
Brc1ccc(OCCn2ccnc2)cc1 | -5% | -24%
COc1cc2c(cc1OC)C1(CCCC1)CNC2c1ccc([N+](=O)[O-])cc1 (configuration not stated) | -11% | -4%
Cc1[nH][nH]c(=O)c1C(c1ccc(-c2cccc(Cl)c2)o1)c1c(C)[nH][nH]c1=O | u | -6%
N#Cc1ncccc1CCc1cccc(Cl)c1 | -22% | 3%
CC1CCc2c(sc(/N=C/c3ccco3)c2C(N)=O)C1 (configuration not stated) | -17%[7.34 µM] | 0%[7.34 µM]
COc1ccc(C(=O)C2CCCN(Cc3ccc(C)s3)C2)c(OC)c1 (configuration not stated) | -18% | -9%
O=C1C(=O)N2C(=C1C(=O)N1CCCCCC1)c1ccccc1CC21CCCC1 | -15% | -9%
O=C1Nc2cc3c(cc2Sc2ccccc21)OCCO3 | x | -16%
CCC1(CC)NC(=O)N(CC(=O)OC(C)C(=O)Nc2ccccc2OC)C1=O (configuration not stated) | i | -4%
O=c1[nH]nc(Cc2ccc(Cl)cc2)c2ccccc12 | -26% | -24%
O=C(Nc1ccc(Cl)c(Cl)c1)Nn1cnnc1 | i | -18%
CCOc1ccc(NC(=O)c2cc(S(=O)(=O)NC3CCCC3)ccc2F)cc1 | -2% | -22%
NC(=O)C1CCN(C(=O)COc2ccc(S(=O)(=O)NCc3ccccc3)cc2Cl)CC1 | -18% | -9%
Cc1ccccc1-n1c(=O)cc(NCC2CCCO2)[nH]c1=O (configuration not stated) | -11% | -14%
Cc1ccc(CC2(C)C(=O)Nc3c(Cl)cccc32)cc1 (configuration not stated) | 50%[activator] | -9%
COc1ccc2c(c1OC)C(=O)N(c1ncn[nH]1)C2 | 12% | 10%
Cc1ncsc1CCOC(=O)c1ccc(Cl)cc1 | -10% | -5%
CCC(=O)N1CCCC(C)(C(=O)Nc2nccc3cccnc23)C1 (configuration not stated) | i | 1%
CCNc1nc(NCC)n2c(SCC(=O)Nc3ccc(OC)c(OC)c3)nnc2n1 | -7% | 5%
COc1ccc(S(=O)(=O)N(C)C)cc1NC(=O)c1ccc(OCC(=O)N2CCOCC2)c(OC)c1 | -16% | -6%
O=C(/C=C/c1cccc(Cl)c1)Nn1c(-c2cccs2)nc2ccccc2c1=O | i | -7%
COc1cccc(-c2nc(CS(=O)(=O)CC(=O)Nc3cc(C)ccc3C)c(C)o2)c1 | -11% | -23%
CC1CCN(c2nc3c(-c4cccc(Br)c4)nnn3c3ccccc23)CC1 | -4% | -12%
CCCN(C(=O)c1cn(-c2ccccc2)nc1-c1ccc(OC)cc1)C1CCS(=O)(=O)C1 (configuration not stated) | -16% | -11%
CC1CCN(C(=O)c2[nH]cnc2C(=O)N(C)Cc2ccccc2)CC1 | -11% | -4%
CCCCn1c(O)c(N=Nc2ccccc2O)c2ccccc21 | -39% | -5%
C=CCN(c1ccccc1Cl)S(=O)(=O)c1cccc(C(=O)NCCc2ccc(OC)cc2)c1 | u | u
COc1ccccc1C(=O)NCCC(=O)NCCOc1ccc(C)cc1 | i | -16%
COc1ccccc1OCCSc1nnnn1-c1ccc(C)cc1 | i | -20%
O=C1CSC(=Nc2cccc(Cl)c2Cl)N1Cc1cccnc1 | -30% | -1%
COc1ccc(/C=N/NC(=O)CO/N=C(\C)c2cccs2)cc1 | 4% | 8%
COC(=O)[C@@]1(Cc2ccc(OC)cc2)[C@H]2c3cc(C(=O)N(C)C)n(Cc4c(CO)[nH]cc(C)c4=O)c3C[C@H]2CN1C(=O)c1ccccc1 | -6% | -2%
COc1ccc(Cl)cc1NC(=O)Nc1ccc(C(=O)N2CCOCC2)cc1 | -7% | -20%
Cc1ccc(CNC(=O)c2nn(C)c(C)c2[N+](=O)[O-])cc1 | -12% | 3%
COc1cc(OC)cc(-c2c(C#Cc3ccsc3)c3cc(-c4ccc5c(c4)OCO5)ccc3n2C)c1 | -15% | -8%
Cc1noc(C)c1NC(=O)N1C[C@H](O)COC[C@H]2O[C@@H](CC(=O)NCC3CCCCC3)CC[C@@H]21 | -11% | -10%
CCn1c(SCC(N)=O)nc2sc3c(c2c1=O)CCCC3 | -19%[1.46 µM] | u
CC(C)C1C(C#N)=C(N)Oc2n[nH]c(-c3ccccc3)c21 (configuration not stated) | x | -18%
CCCNc1nc(NCc2ccccc2OC)c2cnn(C)c2n1 | -24% | -15%
COc1ccc2ccccc2c1CN1CCN(C(=O)c2ccccc2)CC1 | x | u
COc1ccc(NC(=O)NCc2ccccn2)cc1 | -21% | -15%
Cc1ccc2c(c1)cc1c(=O)n(Cc3cccc(Cl)c3)nc(C)n12 | -9% | 4%
Cc1ccc(N2CCN(C(=O)c3c(C)oc4ncn(C)c(=O)c34)CC2)c(C)c1 | -21% | -6%
COc1ccc(C(C)(C)C)cc1NC(=O)c1ccc[n+]([O-])c1 | i | -1%
CCOc1ccc(NC(=O)CSc2nnnn2CC(=O)O)cc1 | x | -1%

# Quoted at random: two entries already listed
Molecule | Vaccinia mCherry | VACV Venus inh
COC(=O)[C@@]1(Cc2ccc(OC)cc2)[C@H]2c3cc(C(=O)N(C)C)n(Cc4c(CO)[nH]cc(C)c4=O)c3C[C@H]2CN1C(=O)c1ccccc1 | -6% | -2%
Cc1ccc(CNC(=O)c2nn(C)c(C)c2[N+](=O)[O-])cc1 | -12% | 3%

# (more compounds)
Molecule | Vaccinia mCherry | VACV Venus inh
O=C(Nc1ccc(C2=CN(Cc3ccccc3)CCC2=O)cc1)OCc1ccccc1 | 0% | -4%
CC1CN(c2ccc([N+](=O)[O-])c(NCCOc3ccccc3)c2)CC(C)N1 (configuration not stated) | -22% | u
Cc1c(/C(O)=C2/C(=O)C(=O)N(CCN3CCOCC3)C2c2cccs2)cnn1-c1ccccc1 (configuration not stated) | x | -5%
CC(C)NC(=O)CN(CCc1ccccc1)S(C)(=O)=O | 0% | -3%
CCN1C(=O)[C@H]2[C@@H](c3ccc(OC)cc3)N[C@]3(CCCN(Cc4ccc(C)cc4)C3=O)[C@H]2C1=O | -7% | -19%
CC(=O)NC1C(O)C[C@@](O)(C(=O)O)OC1[C@@H](O)C(O)CO (some centres not stated) | 8% | 5%
COc1ccc(-c2cc(-c3nnc(-c4ccncc4)o3)c3ccccc3n2)cc1 | -13% | -10%
O=C(c1cccc(Cl)c1)N(Cc1ccco1)C1CCS(=O)(=O)C1 (configuration not stated) | -4% | -12%
CC(C)CN(C(=O)Cn1c(Cl)nc2c1c(=O)n(C)c(=O)n2C)C1CCS(=O)(=O)C1 (configuration not stated) | i | -6%
Cc1cccc(NC(=O)Cn2nnc(-c3nc(-c4ccncc4)no3)c2N)c1 | -10% | -3%
O=C(OCC(=O)c1ccc[nH]1)c1ccccc1 | -15% | -1%
O=C(Cn1c(=O)oc2ccccc21)Nc1ccc2c(c1)OCCO2 | -15% | -11%
O=c1c2ccccc2c2ccccc2c(=O)n1CC1CCCO1 (configuration not stated) | x | -4%
COCCNC(=S)NN=C1CCC(c2ccccc2)CC1 (configuration not stated) | u | -8%
Cc1sc(NC(=O)CCS(=O)(=O)c2ccccc2)c(C#N)c1C | -23% | -28%
CC1CCCN(c2ccc(C(=O)Nc3cccnc3)cc2[N+](=O)[O-])C1 (configuration not stated) | -14% | -26%
Cc1ccc(N)c(N)c1 | -17% | -7%
O=C(Cc1ccccc1F)Nc1cccc(S(=O)(=O)N2CCCCC2)c1 | i | -10%
COc1cccc(CNC(=O)c2ccc(CS(=O)(=O)Cc3ccc(C)cc3)o2)c1 | i | -8%
CCCN1CCO[C@@H]2c3cc(O)ccc3OC[C@H]21 | -13%&-2% | -8%&-12%&-13%
Cc1cccc(N2CCN(C(=O)CN3C(=O)NC(C)(C4CC4)C3=O)CC2)c1C (configuration not stated) | -25% | -18%
CCOC(=O)c1sc2nc(C)n(CC(=O)Nc3cccc(Cl)c3)c(=O)c2c1C | 0% | -4%
Cc1ccc(C2c3[nH]c4ccccc4c3CCN2C(=O)Nc2ccc(C)c(C)c2)cc1 (configuration not stated) | -13% | -14%
CCOCCn1c(CN(Cc2ccccc2)Cc2ccccc2)nc2c1c(=O)n(C)c(=O)n2C | -31% | -12%
O=P(O)(O)COc1ccccc1O | -15% | -6%
Cc1ccc(C)c(CSc2nnc([C@@H]3CCCN3)o2)c1 | u | 12%
COc1ccc(CNC(=O)CN2C(=O)NC(c3ccccc3)(c3ccccc3)C2=O)cc1OC | i | -19%
CN(c1ccccc1)S(=O)(=O)c1cccc(NC(=O)COC(=O)C2CCCCC2)c1 | -10% | -11%
Cn1cccc1-c1cc2n(n1)CCC(=O)N2CC(=O)Nc1ccc(F)cc1Cl | -12% | -3%
CCc1ccc(/C(C)=N/NC(=O)CNC(=O)/C=C/c2ccccc2OC)cc1 | -17% | -23%
O=C(CCn1cnc2ncccc2c1=O)N1CCN(c2cccc(Cl)c2)CC1 | i | 7%
c1csc(-c2nc(N3CCN(Cc4ccc5c(c4)OCCO5)CC3)c3ccccc3n2)c1 | -18% | -14%
O=C(Oc1cccc2c(O)cccc12)c1ccco1 | u | -3%
O=C(Cc1ccc(NC(=O)C2CCCN(C(=O)C3CCCC3)C2)cc1)Nc1cccc(C(=O)N2CCCCC2)c1 (configuration not stated) | i | 0%
CC(C)(O)C1C2OC(=O)C1[C@]1(O)CC3O[C@@]34C(=O)OC2[C@@]14C (some centres not stated) | i | -15%
CCOC(=O)N(C)c1c(CC)nc2c(OCc3ccc(Cl)cc3)cccn12 | i | -1%
COc1ccc(S(=O)(=O)N(CC(=O)N2CCN(C)CC2)c2ccccc2)cc1OC | -12% | -3%
CNC(=O)c1sc(N2N=C3/C(=C\c4ccccc4)CCCC3C2c2ccccc2)nc1C (configuration not stated) | -1% | -11%
COc1ccc(C(C(=O)NCC2CCCO2)N(C(=O)CNC(=O)c2cccs2)c2ccc(C)cc2)cc1OC (configuration not stated) | -2% | -4%
O=C(CN1CCOCC1)N1CCc2ccccc2C(c2ccccc2)C1 (configuration not stated) | x | -5%
C/C(=N\NC(=O)c1cccnc1)c1ccccc1 | -12% | -4%
Cc1ccc(Cl)cc1N1CCN(Cc2nnc(-c3ccc4c(c3)OCO4)o2)CC1 | -9% | -10%
CC(C)[n+]1ccn(C2=C([O-])c3ccccc3C(=O)/C2=N\S(=O)(=O)c2ccccc2)c1 | u | u
O=C(NCc1ccco1)c1c[nH]c2ccc(S(=O)(=O)Nc3ccc(F)cc3F)cc2c1=O | 8% | -2%
Cc1ccc(C(CC(=O)Nc2cc(C)cc(C)c2)N2Cc3ccccc3C2=O)cc1 (configuration not stated) | -20% | -19%
CC1(C)CC(=O)C=C(C(=O)N2CCCC(C(=O)c3cccc(Cl)c3)C2)O1 (configuration not stated) | i | -1%
O=C(Nc1ccccc1)c1ccsc1 | i | -4%
S=C(NCCN1CCCCC1)Nc1ccc(Br)cc1 | -26% | -11%
CN1CCN(c2nc3c(c(=O)[nH]c(=O)n3C)n2CCSc2nc3ccccc3s2)CC1 | i | 0%
COCCNC(=O)C(C)N(c1ccc(Oc2ccccc2)cc1)S(C)(=O)=O (configuration not stated) | x | -14%
COc1cc(Cl)c(C)cc1NC(=O)Cn1ncc2c([nH]c3ccccc32)c1=O | -6% | -11%
Cn1nc(C(=O)NCc2ccccc2)c2c1-c1ccccc1SC2 | -10% | -4%
O=C(NNC(=S)Nc1ccc(Cl)c(Cl)c1)c1cccc([N+](=O)[O-])c1 | -26% | -19%
CCCSc1ccc([C@@H]2[C@H]3C(=O)N(CC)C(=O)[C@H]3[C@]3(C(=O)OC)CCCCN23)cc1 | -3% | -17%
COc1ccc(S(=O)(=O)N(C)C)cc1NC(=O)Cc1c[nH]c2ccccc12 | -10% | -11%
OCCN1CCN(c2cc(-c3ccc4ccccc4c3)nc3ccnn23)CC1 | -26% | -8%
